Screening data: PubChem, several laboratories
Mtb H37Rv: M. tuberculosis H37Rv growth inhibitors, H37Rv strain (AID 1626); M. tuberculosis H37Rv growth inhibition; higher % means a stronger effect; inhibition, % at 10 µM; hits with a dose series show IC50 in µM; 220,000 tested, 0.95% active;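 active = confirmed in a dose series; inconclusive = inhibition above 80% but not taken into the dose series; inactive = below 80% or under 30% at every dose of the series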;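 note: bacteria incubated seven days before Alamar blue readout; 0% = bacteria only wells and 100% = bacteria with antibiotic wells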
YopH inh: YopH tyrosine phosphatase inhibitors, primary screen, biochemical, fluorescence Ex485/Em525; YopH tyrosine phosphatase [Yersinia enterocolitica]; inhibition, %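 (about 10 µM by stock and volumes)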; 140,000 tested, 0.16% active; AID 898, 2007;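 active = inhibition of 50% or more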;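 note: controls were vehicle for no effect and minimum signal wells for full effect; inactives centre near -20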
Arbovirus anti: antivirals against arbovirus infection, primary screen, cell-based, full library, 10K replicate subset | 200,000 tested, 0.37% active | AID 1251, 2008 | inhibition, % at 10 µM | arbovirus infection cell-based antiviral screen;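 active = inhibition from about 30%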;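 note: bluetongue infection of BSR cells; cell survival read as ATP light after 72 h; 0% = infected wells without compound and 100% = uninfected wells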
Mtb betalactam: beta-lactam sensitization of Mtb H37Rv, H37Rv; M. tuberculosis H37Rv growth with meropenem, percent inhibition; hits of this screen are not shown here; inhibition, % at 25 µM; 330,000 tested, 0.27% active;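 active = about 74% or more and at least 40 points above the plate without the antibiotic, then above 30% in a dose series; inconclusive = first-round hits that could not be retested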;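 note: growth measured after seven days incubation then overnight dye step; 0% = bacteria only wells and 100% = bacteria with antibiotic; twin plates without the antibiotic show which effects depend on it; some results filed as inactive read as strong as hits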
RecA intein inh: Mtb RecA intein splicing inhibitors, primary screen, biochemical, fluorescence, HTS. AID 2221, 2009. cell-free RecA intein splicing. 290,000 tested, 0.75% active. inhibition, %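 (about 9 µM by stock and volumes)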; in the data active = inhibition above about 30%; inconclusive = no clear call, values can overlap the other calls;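 note: 0% = vehicle wells and 100% = reference inhibitor control wells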
Target sequence (P9WHJ3 whole entry, looked up): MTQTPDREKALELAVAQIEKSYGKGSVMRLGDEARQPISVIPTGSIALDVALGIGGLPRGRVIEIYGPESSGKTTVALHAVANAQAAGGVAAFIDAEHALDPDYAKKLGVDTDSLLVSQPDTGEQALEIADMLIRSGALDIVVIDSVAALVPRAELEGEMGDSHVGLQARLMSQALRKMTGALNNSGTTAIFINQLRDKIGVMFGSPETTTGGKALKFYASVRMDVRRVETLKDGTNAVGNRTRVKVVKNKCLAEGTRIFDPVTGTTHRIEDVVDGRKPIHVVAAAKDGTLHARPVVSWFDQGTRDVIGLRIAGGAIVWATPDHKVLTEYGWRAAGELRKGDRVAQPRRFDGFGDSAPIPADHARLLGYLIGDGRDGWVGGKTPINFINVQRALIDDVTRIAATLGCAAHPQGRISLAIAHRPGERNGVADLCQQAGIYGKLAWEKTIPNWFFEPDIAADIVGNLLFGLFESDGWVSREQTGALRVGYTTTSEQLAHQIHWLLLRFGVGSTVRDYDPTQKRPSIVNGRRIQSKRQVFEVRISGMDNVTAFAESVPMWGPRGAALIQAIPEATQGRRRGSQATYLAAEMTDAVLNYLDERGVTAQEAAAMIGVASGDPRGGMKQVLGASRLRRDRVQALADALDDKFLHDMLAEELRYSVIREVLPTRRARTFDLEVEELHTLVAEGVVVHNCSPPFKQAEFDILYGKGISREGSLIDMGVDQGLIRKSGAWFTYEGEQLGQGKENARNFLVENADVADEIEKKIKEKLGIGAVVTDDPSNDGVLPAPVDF
* marks the source's active call; other numbers are inactive results; ? = inconclusive; / = not tested or not shown; & = joins results of further samples. Some of the compounds tested. The share of hits here may be higher or lower than overall.

cpd | structure | Mtb H37Rv | YopH inh | Arbovirus anti | Mtb betalactam | RecA intein inh
1 | COc1ccc(CC(=O)Nc2ccc(S(=O)(=O)Nc3nccs3)cc2)cc1 | / | / | / | -2.1 | 1.1
2 | Cc1cccc2cc(CN(C(=O)c3cnccn3)C3CCCCC3)c(Cl)nc12 | 7.2% | 3.8 | -26.9 | -0.7 | 9.5
3 | CC(C)N1C(=O)CC(Nc2ccc(N3CCOCC3)cc2)C1=O (centres undefined) | -7.1% | -9.3 | -5.3 | 3.1 | -4.6
4 | Cc1nonc1OCCn1c([N+](=O)[O-])cnc1C | 1.4% | / | -2.5 | -12.4 | -2.7
5 | COc1ccc(S(=O)(=O)Nc2ccc(NC(C)=O)cc2)cc1[N+](=O)[O-] | -7.6% | / | 0.1 | 12.0 | -3.3
6 | Cc1nc(SCc2ccc(C(=O)O)cc2)c2c(C)c(C)sc2n1 | -11.8% | / | / | -8.5 | 0.6
7 | Cc1nc(CS(=O)(=O)c2ccc(Cl)cc2)cc(N2CCOCC2)n1 | -0.9% | -28.4 | -0.3 | 2.8 | 1.6
8 | Cc1ccc(C)c(N2CCN(S(=O)(=O)c3ccc4c(c3)CCN4C(=O)CCC(=O)O)CC2)c1 | -3.6% | -14.7 | 10.4 | 1.9 | 2.4
9 | COc1ccccc1CNC(=O)COc1cccc(-n2cnnn2)c1 | / | / | / | -2.5 | 1.2
10 | CCOC(=O)c1c(C)[nH]c(C)c1C(=O)CSc1nnc(-c2ccncc2)n1Cc1ccccc1 | 0.6% | -11.4 | 14.1 | 2.9 | 0.3
11 | O=C(Nc1ccccc1)/C(=C/c1ccc([N+](=O)[O-])cc1)NC(=O)c1ccco1 | / | / | / | -3.3 | 1.0
12 | CCOC(=O)c1ncn2c1CN(C)C(=O)c1cc(F)ccc1-2 | -4.1%&5.2% | -34.7 | 0.5&7.0 | 1.1 | -1.9
13 | COc1ccc(/C=C2/C(=O)N=C3SCCN32)cc1 | 2.4% | -12.6 | -2.5 | -3.0 | -2.2
14 | COc1ccc(-c2ccc3oc(-c4ccc(OC)cc4)c(-c4cc(OC)c(OC)c(OC)c4)c3c2)cc1 | 2.6% | / | / | 4.4 | 0.7
15 | Cc1ccc2nc(SCC(=O)Nc3ccc(C)c([N+](=O)[O-])c3)[nH]c2c1 | ? | -19.4 | -10.7 | 98.4 | 3.4

Taken from the entries so far, 5 compounds:
cpd | structure | Mtb H37Rv | YopH inh | Arbovirus anti | Mtb betalactam | RecA intein inh
1 | COc1ccc(CC(=O)Nc2ccc(S(=O)(=O)Nc3nccs3)cc2)cc1 | / | / | / | -2.1 | 1.1
2 | Cc1cccc2cc(CN(C(=O)c3cnccn3)C3CCCCC3)c(Cl)nc12 | 7.2% | 3.8 | -26.9 | -0.7 | 9.5
3 | CC(C)N1C(=O)CC(Nc2ccc(N3CCOCC3)cc2)C1=O (centres undefined) | -7.1% | -9.3 | -5.3 | 3.1 | -4.6
4 | Cc1nonc1OCCn1c([N+](=O)[O-])cnc1C | 1.4% | / | -2.5 | -12.4 | -2.7
5 | COc1ccc(S(=O)(=O)Nc2ccc(NC(C)=O)cc2)cc1[N+](=O)[O-] | -7.6% | / | 0.1 | 12.0 | -3.3

Continued:
cpd | structure | Mtb H37Rv | YopH inh | Arbovirus anti | Mtb betalactam | RecA intein inh
16 | Cc1ccc(NC(=O)C(=O)NCCN2CCN(S(C)(=O)=O)CC2)cc1C | 3.1% | / | 13.2 | 5.7 | 1.8
17 | COc1ccc(C(=O)Nc2nnc(-c3ccco3)s2)cc1 | -3.6% | -28.3 | -37.2 | 0.6 | 5.7
18 | CCn1c(C(=O)O)c(CC(=O)Nc2cccc(C(F)(F)F)c2)c2ccccc21 | / | / | / | 5.5 | 6.7
19 | COCC(C)N1CCC(Oc2ccc(C(=O)N3CCCC3)cc2)CC1 (centres undefined) | / | / | / | -8.0 | -0.5
20 | CCOC(=O)c1c(N)sc(C(O)(C(F)(F)F)C(F)(F)F)c1-c1ccc(Cl)cc1 | -10.2% | -4.8 | -33.6 | 11.8 | 10.8
21 | Cc1nc2ccccn2c1/C(O)=C1\C(=O)C(=O)N(CCN2CCOCC2)C1c1cccs1 (centres undefined) | -10.3% | 23.7 | 3.4 | -2.9 | 2.1
22 | CS(=O)(=O)c1ccccc1-c1nnc(NC(=O)c2cccc(N3C(=O)CCC3=O)c2)o1 | / | / | / | -2.0 | -1.5
23 | COCCNC(=O)/C(C#N)=C/c1ccc(OCC(=O)NC2CCCCC2)cc1 | 4.1% | / | 11.1 | -2.0 | -0.1
24 | COc1cc(/C=c2\s/c(=C\C(=O)C(C)(C)C)[nH]c2=O)cc(OC)c1OC | 66.3% | / | -29.1 | 83.4 | /
25 | CCN(Cc1nc2ccccc2c(=O)[nH]1)Cc1cc(=O)oc2cc(C)c(C)cc12 | -4.5% | -2.5 | / | 1.8 | 0.2
26 | N/C(COc1ccc(C(=O)O)cc1)=N\O | 11.0% | 6.3 | -7.5 | -6.7 | -8.5
27 | Cc1cc(OCCN2CCOCC2)ccc1[N+](=O)[O-] | -0.8% | -11.4 | 2.6 | -6.3 | 3.3
28 | COc1ccc(CN2CCN(CCc3ccccc3)C(CCO)C2)cc1Cn1cncn1 (centres undefined) | -0.3% | / | 6.9 | -4.3 | -2.1
29 | O=C(Oc1ccc(-c2ccccc2)cc1)N1CCCCC1 | -11.3% | -5.7 | 4.3 | 25.4 | 3.1
30 | CCN1CCN(C(c2cccs2)C(C)NC(=O)c2cccc(OC)c2OC)CC1 (centres undefined) | -4.6% | -35.6 | 14.6 | 2.0 | 1.4
31 | CCCCOc1ccc(C(=O)N(C)CC(=O)Nc2ccc(C)cc2)cc1 | / | / | / | -1.1 | 0.4
32 | O=C(Cn1ncn2c(cc3sccc32)c1=O)NC1CCCC1 | / | / | / | -3.0 | -3.2
33 | Cc1cccc(Cc2c(C)[nH]c(=O)c(C#N)c2C)c1 | -8.6% | / | 0.5 | -3.5 | -2.8
34 | O=C(c1ccc([N+](=O)[O-])cc1)N1CCN(C(=O)c2cccnc2)CC1 | / | / | / | 1.9 | -0.1
35 | CSCCC(NC(=O)COc1ccccc1)C(=O)OCCOc1ccc(F)cc1 (centres undefined) | / | / | / | 13.3 | 7.7
36 | Cc1noc(C)c1S(=O)(=O)N(C)CC(=O)NCc1ccccc1 | -1.6% | -29.4 | -5.9 | -9.4 | -0.1
37 | Cn1c(=NC(=O)c2ccccc2[N+](=O)[O-])sc2cccc(F)c21 | 1.5% | / | / | -3.2 | -3.3
38 | COc1ccc(N(C(=O)CNC(=O)c2ccco2)C(C(=O)NC2CCCCC2)c2ccncc2)cc1 (centres undefined) | / | / | / | -4.5 | -0.4
39 | Cc1cc(C)c(C#N)c(N2CCCC(C(N)=O)C2)n1 (centres undefined) | 9.6% | -5.0 | -2.9 | -5.9 | -4.0
40 | O=C(Oc1cccc(C(=S)N2CCOCC2)c1)c1cc([N+](=O)[O-])cc([N+](=O)[O-])c1 | 2.1% | / | -0.2 | -7.8 | 28.0
41 | O=C(CNS(=O)(=O)c1ccc(Br)s1)N1CCN(c2ncccn2)CC1 | 2.0% | -47.0 | 2.1 | / | -0.8
42 | C=CCc1cccc2cc(C(=O)NC3CCCCC3)c(=O)oc12 | 37.8% | / | 2.5 | 51.9 | 2.3
43 | CC(=O)N1CCOc2ccc(S(=O)(=O)NCC3CCC(C(=O)Nc4ccc(C)cn4)CC3)cc21 (centres undefined) | / | / | / | 6.9 | 1.9
44 | O=C(c1cnn2c(C(F)F)cc(-c3ccccc3)nc12)N1CCN2CCCC2C1 (centres undefined) | -2.6% | -21.4 | 3.6 | -9.2 | -2.1
45 | O=C(CCN1CCCC1Cc1ccccc1)c1ccc2c(c1)OCCO2 (centres undefined) | / | 0.3 | -17.8 | 93.1 | -0.7

Molecules from the list above that contain an aryl thioether with sulfur outside any ring:
cpd | structure | Mtb H37Rv | YopH inh | Arbovirus anti | Mtb betalactam | RecA intein inh
6 | Cc1nc(SCc2ccc(C(=O)O)cc2)c2c(C)c(C)sc2n1 | -11.8% | / | / | -8.5 | 0.6
10 | CCOC(=O)c1c(C)[nH]c(C)c1C(=O)CSc1nnc(-c2ccncc2)n1Cc1ccccc1 | 0.6% | -11.4 | 14.1 | 2.9 | 0.3
15 | Cc1ccc2nc(SCC(=O)Nc3ccc(C)c([N+](=O)[O-])c3)[nH]c2c1 | ? | -19.4 | -10.7 | 98.4 | 3.4

Following part.
cpd | structure | Mtb H37Rv | YopH inh | Arbovirus anti | Mtb betalactam | RecA intein inh
46 | CCOC(=O)c1c(-c2ccc(C)o2)csc1NC(=O)CN1CCC(C(N)=O)CC1 | 6.3% | / | -6.9 | 5.5 | /
47 | COc1ccc(-c2nnsc2N2C(=O)c3ccccc3C2=O)cc1 | -7.3% | / | / | -12.2 | -0.5
48 | COC(=O)COc1ccc(C(c2c(C)[nH][nH]c2=O)c2c(C)[nH][nH]c2=O)cc1 | / | / | / | 5.3 | 97.6*
49 | CCN(CC)c1ccc(-c2nc3cnccn3c2NC2CCCC2)cc1 | 5.1% | -10.9 | -2.7 | 86.3 | -27.2
50 | CCCCN(C)CCNC(=O)c1cc(-c2cccnc2)nc2ccc(S(=O)(=O)N3CCC(C)CC3)cc12 | / | / | / | 8.1 | 1.7
51 | CC1=C(C(=O)Nc2ccccc2)C(c2ccc(C)cc2)N=C(Nc2nc3ccccc3o2)N1 (centres undefined) | 19.4% | -13.2 | -3.7 | / | 0.7
52 | CCOC(=O)c1c(C)nc2sc3c(c2c1-c1ccc(OC)cc1)NC(c1ccccc1)NC3=O (centres undefined) | -7.5% | 8.7 | -1.1 | 51.2 | -23.8
53 | CC(C)c1ccc(NC(=O)/C(C#N)=C/c2ccncc2)cc1 | / | / | / | -16.4 | 21.6
54 | COC(=O)c1ccccc1NC(=O)c1ccc2c(c1)OCCCO2 | / | / | / | 59.7 | 5.3
55 | O=C(c1ccc([N+](=O)[O-])cc1)N(Cc1cccs1)C1CCS(=O)(=O)C1 (centres undefined) | / | / | / | ? | 1.6
56 | CCC(=Cc1ccc(CC)cn1)CC | -4.2% | / | / | -4.2 | 0.9
57 | CCCCC(=O)Nc1cccc(NC(=O)C(C)C)c1 | -1.3% | -24.2 | 1.6 | -6.8 | 5.0
58 | CSCCC(NC(=O)C1CCCCC1)c1nc2ccccc2[nH]1 (centres undefined) | -3.8% | / | / | -0.3 | 11.4
59 | Cc1ccc(S(=O)(=O)NCCc2ccncc2)cc1C | -1.0% | / | 0.7 | -4.6 | 0.1
60 | CCc1ccc(NC(=O)c2cnn(-c3ccccc3)c2C)cc1 | 1.3% | -34.7 | -4.8 | 1.1 | -0.7
61 | Cc1ccc(CNC(=O)CCNS(=O)(=O)c2cccs2)cc1 | -1.5% | -29.9 | -0.6 | ? | -1.3
62 | Cc1cc(C)c(NC(=O)CN2C(=O)NC3(CCCCC3)C2=O)c(Cl)c1 | -4.5% | -44.2 | 4.0 | 13.4 | 3.5
63 | CCOC(=O)c1c(NCc2ccc3c(c2)OCO3)c2ccccc2[nH]c1=O | -7.2% | -24.3 | 8.4 | 1.9 | /
64 | CCOc1ccc(-c2c(C(=O)N/N=C/c3ccc(OC)cc3)nnn2-c2nonc2N)cc1 | 2.1% | -22.6 | -0.8 | 5.2 | -0.8
65 | CCc1cccc(Nc2c3c(nc4ncnn24)CCC3)c1 | -1.1% | / | -3.7 | -3.0 | -0.9
66 | Cc1ccc2c(CC(=O)NNC(=O)c3ccncc3)coc2c1 | / | / | / | 3.6 | -0.4
67 | Cn1c(/C=C/c2ccc([N+](=O)[O-])o2)nc2ccccc2c1=O | ? | -24.8 | -33.2 | 100.1 | 1.1
68 | CCn1c(SCC(=O)Nc2ccc3c(c2)OCCO3)nnc1-c1ccccn1 | -5.5% | -12.3 | 4.8 | -1.9 | 1.2
69 | Cc1c(NC(=O)c2csc3c2CCCC3)c(=O)n(-c2ccccc2)n1C | / | / | / | 22.9 | 0.9
70 | O=C(CNS(=O)(=O)c1ccccc1)OCC(=O)c1ccccc1Cl | / | / | / | -8.9 | 1.0
71 | Cc1cccn2c(=O)nc(SCC(=O)N3CCCCCC3)nc12 | / | / | / | -8.9 | -1.7
72 | COc1cccc(C(=O)/C=C/Nc2ccc(S(=O)(=O)Nc3cnc4ccccc4n3)cc2)c1 | 33.0% | -39.3 | -2.1 | 90.3 | -4.5
73 | CCc1cc(=O)oc2c3c(cc(OCC(=O)NCCC(=O)O)c12)OC(C)(C)CC3 | / | / | / | -4.2 | -3.8
74 | COc1ccccc1CNC(=O)C1CCC(CNc2c(N3CCCCC3)c(=O)c2=O)CC1 (centres undefined) | -6.7% | / | / | -5.8 | 4.5
75 | Cc1oc(-c2ccccc2F)nc1CS(=O)(=O)CC(=O)N1CCCCCC1 | -1.5% | -21.0 | 3.7 | -3.2 | 1.0
